MgrA DNA FP – modulators of Staphylococcus aureus MgrA DNA binding | fluorescence polarization | inhibition, %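 (about 10 µg/mL by stock and volumes)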 | actives 0.13% (n = 84,000) | AID 602314;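 active = above 50% in either of two replicates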;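 also: 0% = protein plus DNA without compound and 100% = DNA alone without protein; higher means less MgrA bound to DNA so lower polarization; one replicate is shown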
S aureus helic – S. aureus DNA helicase inhibition; purified S. aureus helicase, fluorescence unwinding assay; about half of the hits fall short of the stated cut; inhibition, %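 (tested at about 80 µM)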; actives 0.05% (n = 120,000); AID 485395;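 active = both duplicates at 50% or more, or one of them with a favoured structure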;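 also: 0% = mean of negative control wells and 100% = mean of positive control wells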
* hit, by the source's call; / = not tested or not shown; & = joins results of further samples.

SMILES	MgrA DNA FP	S aureus helic
O=C(NC(N1CCCC1=O)(C(F)(F)F)C(F)(F)F)c1cccnc1	-1.8	/
Cc1cc(C)nc(SCC(=O)N2c3ccccc3C(C)CC2(C)C)n1 (configuration not stated)	1.1	9.0
O=C(O)C1CCC(=O)N1Cc1cccs1 (configuration not stated)	-3.0	/
Clc1ccc(SCc2csc(-c3ccsc3)n2)cc1	-0.6	/
CCn1cc(C(=O)N2CCCSC2=Nc2ccccc2)c(=O)c2ccc(C)nc21	/	-4.0
CCCCNC(=O)c1ccc2cn[nH]c2c1	/	-5.0
CCOC(=O)c1c(C=O)oc2c(C)cc(OC(=O)c3ccc(Cl)cc3)c(Br)c12	-1.3	/
COc1ccc(/C=C(\C#N)S(=O)(=O)c2ccccc2Cl)s1	2.5	/
O=C(Cc1csc(NC(=O)c2ccco2)n1)NCc1ccc(Cl)cc1	/	-16.0
N#Cc1c(N)c(C(=O)c2ccccc2)n2c1CCC2	0.0	-15.0
CSc1nnc(COc2ccccc2)n1N	/	20.0
COc1cc2c(cc1OC)CN(c1c([N+](=O)[O-])cc(C(F)(F)F)cc1[N+](=O)[O-])CC2	2.9	/
O=C(CSc1nnc2n1CCCCC2)NC(=O)c1cccs1	/	-4.0
COC(=O)COc1ccc(C(C)=O)cc1	0.0	/
CCC12CN3CC(CC)(CN(C1)C(=O)c1ccccc1C3=O)C2=O	2.3	12.0
CCN(CC)C(=O)C1=C(C)N=C2SC(C#N)=C(N)N2C1c1ccc(Cl)cc1 (configuration not stated)	0.8	-19.0
CC(=O)N(C(C)=O)c1cc(C(=O)O)ccc1Sc1ccc(Br)cc1	/	1.0
CCc1[nH]c(=O)cc2cc(OC)c(OC)cc12	-2.6	/
Cc1ccc(S(=O)(=O)N2CCCCC2C(=O)NC(C)c2ccc3c(c2)OCCO3)cc1 (configuration not stated)	/	-4.0
O=C(Cc1cccs1)Nc1c[nH]c(=O)[nH]c1=O	-0.4	4.0
CCn1cc(C2CC(=O)N(c3ccccc3)C2=O)c2ccccc21 (configuration not stated)	/	-18.0
CC(=O)Nc1ccc(NC(=O)COc2ccc(C)c(C)c2)cc1	0.2	11.0
CCOC(=O)C1CCN(c2ncnc3c2oc2ccccc23)CC1	3.2	-10.0
O/N=C/c1nc(-c2ccc(Cl)cc2)n2ccccc12	/	3.0
Cc1cc2occ(CC(=O)O)c2cc1C(C)C	/	2.0
O=C1Nc2ccc(S(=O)(=O)N3CCCC3C(=O)O)c3cccc1c23 (configuration not stated)	0.5	8.0
O=C(NCCSCc1ccco1)c1cncc(Br)c1	1.5	/
O=C(NC1=NCCS1)c1cc2nc(Nc3ccccc3)sc2s1	/	-3.0
C[C@H]1c2ccoc2CC2[C@H]1CCC1[C@@](C)(CC(=O)O)CCC[C@]21C (some centres not stated)	0.7	3.0
Cc1nn(-c2ccccc2)c(=O)c2ccccc12	-2.4	3.0
O=C(c1cccc(N2CCCS2(=O)=O)c1)N1CCN(c2ccccc2)CC1	/	14.0
CC(C)CNc1nc(-c2ccccc2)cs1	-5.0	9.0
Oc1[nH]c2ccccc2c1N=NC1=NCCC1	/	1.0
c1ccc(N2CCN(Cc3cn4ccccc4n3)CC2)nc1	-1.6	7.0
CC1CCCCN1CCCNC(=O)Nc1ccc(Cl)cc1 (configuration not stated)	-1.2	/
CS(=O)(=O)N(Cc1ccccc1Cl)c1ccc(C(=O)Nc2ccc3c(c2)OCO3)cc1	2.2	6.0

Reprinted from above (seven entries):
SMILES	MgrA DNA FP	S aureus helic
Cc1nn(-c2ccccc2)c(=O)c2ccccc12	-2.4	3.0
O=C(c1cccc(N2CCCS2(=O)=O)c1)N1CCN(c2ccccc2)CC1	/	14.0
CC(C)CNc1nc(-c2ccccc2)cs1	-5.0	9.0
Oc1[nH]c2ccccc2c1N=NC1=NCCC1	/	1.0
c1ccc(N2CCN(Cc3cn4ccccc4n3)CC2)nc1	-1.6	7.0
CC1CCCCN1CCCNC(=O)Nc1ccc(Cl)cc1 (configuration not stated)	-1.2	/
CS(=O)(=O)N(Cc1ccccc1Cl)c1ccc(C(=O)Nc2ccc3c(c2)OCO3)cc1	2.2	6.0

More compounds follow.
SMILES	MgrA DNA FP	S aureus helic
CC1=NNC(=O)C1CC(=O)N/N=C/c1sccc1C (configuration not stated)	/	23.0
N#Cc1cccc(NC(=O)CNc2ccc3ccccc3c2)c1	/	-10.0
COc1ccccc1CC(=O)N1CCN(S(=O)(=O)c2ccccc2C(F)(F)F)CC1	/	7.0
Cc1cc(C)n(CCCNC(=O)c2ccc(S(=O)(=O)NCc3ccco3)cc2)n1	/	-6.0
O=c1/c(=C\c2cccc(Oc3ccc(C(F)(F)F)cc3[N+](=O)[O-])c2)sc2nc3ccccc3n12	4.0	/
Cc1ccccc1OCc1nnc(SCC(N)=O)n1C	-0.9	-3.0
CC12CCC(C(=O)N3NC(=O)[C@@H](c4ccccc4)[C@@H]3c3ccccc3)(OC1=O)C2(C)C (some centres not stated)	3.2	/
CCOC(=O)c1c(C)c(-c2ccccc2)n(CC(=O)N(CC)CC)c1C	-1.1	12.0
NNC(=S)NC1CC2C=CC1C2 (configuration not stated)	-1.7	/
Cc1cccc(NC(=O)Cn2nnc(C(=O)NCc3ccc4c(c3)OCO4)c2N)c1C	/	10.0
Cc1cc(/C=N/n2cnnc2)c(C)n1-c1ccc(C(=O)O)cc1	-1.8	11.0
Cc1ccc(C)c(C(=O)COC(=O)/C=C/c2ccccc2Cl)c1	-0.6	0.0

Next part, overlapping the part above by 5 compounds.
SMILES	MgrA DNA FP	S aureus helic
CCOC(=O)c1c(C)c(-c2ccccc2)n(CC(=O)N(CC)CC)c1C	-1.1	12.0
NNC(=S)NC1CC2C=CC1C2 (configuration not stated)	-1.7	/
Cc1cccc(NC(=O)Cn2nnc(C(=O)NCc3ccc4c(c3)OCO4)c2N)c1C	/	10.0
Cc1cc(/C=N/n2cnnc2)c(C)n1-c1ccc(C(=O)O)cc1	-1.8	11.0
Cc1ccc(C)c(C(=O)COC(=O)/C=C/c2ccccc2Cl)c1	-0.6	0.0
O=C(CN1CCOCC1)N(c1ccccc1)c1ccc2ccccc2c1	0.7	1.0
Cc1ccc2c(c1)C(C)(C)C1(C)N(Cc3ccccc3)C(=O)CN21 (configuration not stated)	2.6	/
CC1CCc2cc(F)ccc2N1C(=O)Nc1ccccc1 (configuration not stated)	/	-9.0
O=C(O)CCCN1C(=O)c2cccnc2Sc2ccccc21	/	-12.0
Cc1ncc(CO)c2cc(C(=O)Nc3ccc(I)cc3)c(=O)oc12	-0.1	5.0
O=C(OCC#Cc1ccc(-c2ccccn2)s1)c1cccs1	-2.4	/
CCN(CC)c1ccc(C(=O)OCC(=O)Nc2ccc(F)cc2F)cc1	-0.3	26.0
CCCc1nnc(NC(=O)CN2C(=O)c3ccccc3S2(=O)=O)s1	/	-10.0
CSC1=NCCCN1C(=O)c1c(-c2c(F)cccc2Cl)noc1C	3.6	/
CCn1c(CNC(=O)c2cccs2)nnc1SCC(=O)NO	/	2.0
CC(C)n1nccc1N	0.8	8.0
NS(=O)(=O)c1ccc(NC(=O)C2CC2)cc1	-0.9	-14.0
CCCN(CCC)Cc1nnc(-c2cccc(Br)c2)o1	-2.0	-1.0
COC(=O)c1ccc(-c2nnco2)cc1	-1.5	/
CCOC(=O)c1cnc2c(c(C)nn2C)c1Oc1ccc(OC)cc1	-0.5	/
CC(C)c1ccc(NC(=O)C(c2ccccc2)N(C)C)cc1 (configuration not stated)	/	-13.0
Fc1cccc(NC(=S)NN=C2CCCCCC2)c1	5.6	/
OC(CNC1CCN(Cc2ccccc2)CC1)CSc1ccc(F)cc1 (configuration not stated)	-1.0	/
COC(=O)C(C(=O)N1CCCc2ccccc21)C1CCCC1 (configuration not stated)	-0.2	6.0
CSCC(=O)OCc1cc(=O)oc2cc3c(cc12)CCC3	/	12.0
C(=N/N1CCN(c2ccccc2)CC1)/c1ccccc1	2.1	-1.0
Cc1noc(C)c1COc1cccc(C(=O)OCC(=O)c2ccc[nH]2)c1	/	18.0
CCOC(=O)CSc1n[nH]c(CN2c3ccccc3Sc3ccccc32)n1	3.8	/
O=C(COC(=O)c1ccco1)N=c1sccn1Cc1ccccc1Cl	/	7.0

An excerpt from above in order of the MgrA DNA FP value, highest first.
mol | MgrA DNA FP | S aureus helic
C(=N/N1CCN(c2ccccc2)CC1)/c1ccccc1 | 2.1 | -1.0
COC(=O)C(C(=O)N1CCCc2ccccc21)C1CCCC1 (configuration not stated) | -0.2 | 6.0
CCOC(=O)c1cnc2c(c(C)nn2C)c1Oc1ccc(OC)cc1 | -0.5 | /

(next part)
SMILES	MgrA DNA FP	S aureus helic
CC1(C)C2CCC1(CS(=O)(=O)N1CCCC1)C(=O)C2 (configuration not stated)	/	11.0
O=c1c2ccccc2c(=O)n2n1Cc1ccccc1C2	0.8	7.0
N#CC1(NC(=O)COc2ccc3ccccc3c2)CCCC1	/	-8.0
O=C(COc1coc(CN2CCc3ccccc3C2)cc1=O)N1CCCC1	/	9.0
Cc1cc(S(=O)(=O)NN)c(Cl)cc1Cl	-1.8	/
N/C(=N\OC(=O)c1ccc(Br)o1)c1ccncc1	/	30.0
CCCn1c(C(Cc2ccccc2)NC(C)=O)nc2ccccc21 (configuration not stated)	/	7.0
CC(C)n1c(=O)c2oc3ccccc3c2n(Cc2ccccc2)c1=O	0.8	5.0
CC(c1ccccc1)C1CC(=O)N(Cc2ccccc2)C1=O (configuration not stated)	/	25.0
COc1cc(OC)c(C(=O)OCCOc2ccccc2C)cc1OC	/	-7.0
CS(=O)(=O)c1ncc(Cl)c(C(=O)N(Cc2ccccc2)c2ccccn2)n1	/	14.0
O=C(NCc1ccccc1)c1ccc(S(=O)(=O)C(F)F)cc1	/	-13.0
CCOCCOC(=O)C1=C(C)NC2=C(C(=O)CC(c3ccc(Cl)cc3)C2)C1c1cc2c(cc1Cl)OCO2 (configuration not stated)	-1.2	/
NC(=O)c1cc(Cl)c(C(=O)O)[nH]c1=O	/	3.0
CC(C)(C)S(=O)(=O)/C(C#N)=C/Nc1ccc(OC(F)(F)F)cc1	-5.2	/
Cn1nc(C(F)(F)F)cc1OC(=O)c1cccs1	0.0	/
Cc1ccc(C(=O)c2cc(F)c(N3CCOCC3)cc2Cl)cc1C	0.5	8.0
COc1ccc(-c2nc(CN3CCCC3c3cccs3)cs2)cc1OC (configuration not stated)	/	5.0
COc1ccc(NC(=O)C(=O)/C=C(\O)c2ccccc2)cc1	/	1.0
COc1cccc(CN(C)CC(=O)Nc2c(C#N)c(C)c(C)n2Cc2ccco2)c1OC	/	-9.0
CN(C(=O)Nc1ccc(Cl)cc1)n1cnc2ccccc2c1=O	-2.1	/
CCOc1ccc(-c2nnc(N(C(=O)C3CCC3)C(C)C)s2)cc1	-3.0	3.0
Clc1ccc(-c2noc(CSC3=NCCN3)n2)cc1	3.5	/
Cc1cccc(C)c1OC(=O)C1=CN2CCS(=O)(=O)N=C2C=C1	/	0.0

Shown as labelled records: four of the compounds above
COc1cccc(CN(C)CC(=O)Nc2c(C#N)c(C)c(C)n2Cc2ccco2)c1OC
  MgrA DNA FP = /	S aureus helic = -9.0

COc1ccc(NC(=O)C(=O)/C=C(\O)c2ccccc2)cc1
  MgrA DNA FP = /	S aureus helic = 1.0

Cn1nc(C(F)(F)F)cc1OC(=O)c1cccs1
  MgrA DNA FP = 0.0	S aureus helic = /

Clc1ccc(-c2noc(CSC3=NCCN3)n2)cc1
  MgrA DNA FP = 3.5	S aureus helic = /

Later entries
SMILES	MgrA DNA FP	S aureus helic
CCn1cc(C(=O)NC)c(=O)c2ccc(C)nc21	/	8.0
CC1(C)C(=O)Nc2ccccc2N1C(=O)COC(=O)CSc1nnc(-c2ccc(Cl)cc2)o1	/	28.0
COC(=O)CSc1cc2c3c(c(C(=O)OC)sc3c1)NC(=O)CS2	/	4.0
CCOc1ccc2nc(N3CCC(C(=O)NCCOC)CC3)sc2c1	/	-2.0
COCCc1ccc(OCC(O)CNC(C)C)cc1 (configuration not stated)	2.9&-0.6	/
CCOc1ccc(S(=O)(=O)N2CCC(C(=O)N(c3ccccc3)c3nc(C)cs3)CC2)cc1	/	7.0
COC(CNC(=O)c1ccc2c(=O)n(Cc3ccco3)c(=S)[nH]c2c1)OC	/	-13.0
CC(NC(=O)c1ccc(F)cc1)C(c1cccs1)N1CCOCC1 (configuration not stated)	/	-2.0
O=C(c1ccc(Cl)cc1)c1cnc2ncccn12	/	4.0
CC(C)CN(C(=O)COc1ccc(C#N)cc1)c1c(N)n(CC(C)C)c(=O)[nH]c1=O	/	6.0
O=C1Nc2ccc(Br)cc2C1=Nc1ccc(Cl)cc1	-1.6	/
COc1cc2c(cc1OC)C(=O)NCC2	0.4	/

Screening results: PubChem, ICCB-Longwood Screening Facility, Harvard Medical School

An excerpt. The share of hits here may be higher or lower than overall.
